Screening data from PubChem BioAssay.
CtBP-E1A blk = CtBP/E1A binding inhibition; AlphaScreen GST-E1A/His-CtBP binding, 1536-well; stronger effect = lower value; control for the full effect not named in the record; 340,000 compounds, 0.49% hits; AID 651724; activity change, % (test concentration not listed); in the data active means activity change below about -65%; inconclusive means about -30% to -65%; inactive means above about -30%; also: % is scaled to controls: 0 for no effect and ±100 for the full control effect
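Steps: dispense buffer (Tris pH 8.0, NaCl 300 mM, TCEP 1 mM, BSA, Tween 20); add 5X protein mix (GST-E1A, His-CtBP, 125 nM each); pin 23 nL compound; 2 h at 37 °C, dark; add 5X beads (50 ug/mL); 1 h; read.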
TRPML1 agonist = agonists of human TRPML1 channel | 410,000 compounds, 0.12% hits | Q9GZU1 | TRPML1-expressing cells, Ca2+ dye fluorescence, FDSS; host cell line not named in the record; reference of the full effect not given here | activation, % (test concentration not listed); in the data active = activation above about 50%; inconclusive = about 30% to 50%; inactive = below about 30%; also: 0% is about no effect; the text of the record puts the active cut at 80%
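Agonist activity was taken from a 110 s kinetic Ca2+ dye read on the FDSS after pinning compounds onto TRPML1-DL cells. The cells were seeded at 1,500/well with Tet inducer, incubated about 16 h, then dye-loaded at room temperature.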
TRPML1 blocker = human mucolipin-1 channel inhibition | Q9GZU1 | TRPML1-inducible cells, Ca2+ dye fluorescence, FDSS; stronger effect = lower value; inhibition of EC80 agonist-evoked calcium signal | activity change, negative = inhibition, % (concentration not given with the values) | 390,000 compounds, 0.02% hits; in the data active means activity change below about -50%; inconclusive means about -30% to -50%; inactive means above about -30%;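 also: stimulus is agonist 54-4 at its EC80 concentration; % is scaled to controls: 0 for no effect and ±100 for the full control effect; the text of the record puts the active cut at -80%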
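Tet-induced TRPML1-DL cells loaded with Ca8 no-wash calcium dye were read kinetically on FDSS. Compound addition was followed by EC80 agonist 54-4 (4 uM final); inhibition was read over 110 s.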
Six1-Eya2 blk = Six1/Eya2 interaction inhibition; Q15475+O00167; AlphaScreen GST-Six1/His-Eya2 binding, biochemical; stronger effect = lower value; control for the full effect not named in the record; activity change, % (concentration not given with the values); 360,000 compounds, 0.56% hits; AID 651725; in the data active = activity change below about -65%; inconclusive = about -30% to -65%; inactive = above about -30%; also: % is scaled to controls: 0 for no effect and ±100 for the full control effect
Target sequence (O00167 whole entry, looked up): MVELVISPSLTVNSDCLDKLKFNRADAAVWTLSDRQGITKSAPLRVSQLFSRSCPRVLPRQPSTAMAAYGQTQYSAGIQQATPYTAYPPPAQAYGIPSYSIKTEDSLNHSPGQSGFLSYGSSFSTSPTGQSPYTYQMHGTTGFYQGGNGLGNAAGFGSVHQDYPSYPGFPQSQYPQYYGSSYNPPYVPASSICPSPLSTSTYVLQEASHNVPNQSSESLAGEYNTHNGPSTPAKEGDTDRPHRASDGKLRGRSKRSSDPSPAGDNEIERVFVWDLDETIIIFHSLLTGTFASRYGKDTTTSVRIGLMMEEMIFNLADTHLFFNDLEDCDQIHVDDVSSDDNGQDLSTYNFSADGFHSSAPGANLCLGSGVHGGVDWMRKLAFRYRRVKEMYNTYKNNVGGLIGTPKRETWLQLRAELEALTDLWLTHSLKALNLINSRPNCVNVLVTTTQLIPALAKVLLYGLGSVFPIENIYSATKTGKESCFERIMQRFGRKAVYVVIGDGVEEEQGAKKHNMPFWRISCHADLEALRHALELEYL
Target sequence (Q15475 whole entry, looked up): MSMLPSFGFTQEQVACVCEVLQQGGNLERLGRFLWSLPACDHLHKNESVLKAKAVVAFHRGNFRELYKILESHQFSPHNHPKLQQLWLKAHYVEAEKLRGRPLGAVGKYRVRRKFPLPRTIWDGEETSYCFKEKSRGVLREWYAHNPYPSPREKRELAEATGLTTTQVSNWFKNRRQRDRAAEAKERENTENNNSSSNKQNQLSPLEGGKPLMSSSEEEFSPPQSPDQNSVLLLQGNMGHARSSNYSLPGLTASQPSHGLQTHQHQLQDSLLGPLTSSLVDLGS
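Compounds are tested against tagged Six1 and Eya2 proteins bridged by glutathione donor and nickel acceptor beads; after a one-hour incubation at 37 °C without light, AlphaScreen emission is recorded.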
Starred values were filed as active, the others as inactive; · = not tested or not shown; & = joins results of further samples. This is a subset, so the mix of outcomes need not match the whole.

Values in the order – CtBP-E1A blk | TRPML1 agonist | TRPML1 blocker | Six1-Eya2 blk
- CC(=O)Nc1ccn(C2OC(C(COC(C)=O)NC(=O)C(Cc3ccccc3)NC(=O)OC(C)(C)C)C(OC(C)=O)C2OC(C)=O)c(=O)n1 (stereo not given)
 : · | 1.0 | 28.9 | ·
- CCCN1CCC(=O)N(C(CSc2ccc(Br)cc2)CC(C)C)CC1 (stereo not given)
 : · | 1.7 | 6.7 | ·
- CC(=O)Nc1ccc(SCC(CC(C)C)N2CCN(CC(C)C)CCC2=O)cc1 (stereo not given)
 : · | 1.2 | -17.4 | ·
- COC(=O)C1C[C@@H]2C3=C(C(=O)[C@@](C)(NC(=O)c4ccccc4)C3[C@H](C(=O)OC)C1)[C@H](C)n1c(=O)n(-c3ccccc3)c(=O)n12 (stereo not given in full)
 : · | -0.1 | 4.3 | ·
- COc1ccc(C2CC(c3ccccc3)Oc3c(C)ccc(C(C)C)c32)cc1 (stereo not given)
 : · | 0.3&0.7 | 4.6&-2.1 | ·
- CCC1CC=CC2C1C(=O)N(Cc1ccccc1)C2c1ccc(C(F)(F)F)cc1 (stereo not given)
 : · | 3.2 | 65.4 | ·
- Cc1cccc(Cn2cnc3c(cnn3C(C)(C)C)c2=O)c1
 : · | 1.4 | 8.0 | ·
- CC(=O)OCC(NC(=O)C(Cc1ccccc1)NC(=O)OC(C)(C)C)C1OC(n2cc(F)c(=O)[nH]c2=O)C(OC(C)=O)C1OC(C)=O (stereo not given)
 : · | 0.8 | -8.0 | ·
- C/C=C1\COC(C(=O)NCCN2CCOCC2)(C(F)(F)F)C=C1C=C1CCCCC1 (stereo not given)
 : · | 0.6 | -7.3 | ·
- COc1cc(OC)c2c(c1C(CCN1CCCC1)c1ccc(N(C)C)cc1)OC(=O)CC2c1ccc(N(C)C)cc1 (stereo not given)
 : · | 1.0 | -1.8 | ·
- COc1ccc(C2CC(O)(c3ccccc3)Oc3cc(C)c(Cl)c(C)c32)cc1 (stereo not given)
 : · | 0.9 | 36.3 | ·
- COc1ccc(C2/C=C\CN(C(=O)c3ccc(C)cc3)C(C)C(=O)N2Cc2ccc(F)cc2)cc1 (stereo not given)
 : · | 1.6 | 39.4 | ·
- O=C1CCN(CCc2ccccc2)CCN1C(CSc1ccc(Br)cc1)c1ccccc1 (stereo not given)
 : · | 0.8 | 1.4 | ·
- O=S1(=O)C2CC3C=CC2(O3)C(O)C(Cc2ccccc2)N1Cc1cccc(F)c1 (stereo not given)
 : · | 0.4 | 9.0 | ·
- CCC1CC=CC2C1C(=O)N(Cc1ccccc1)C2c1ccc(OC)c(Cl)c1 (stereo not given)
 : · | 3.8 | 81.3 | ·
- Cc1ccc(F)c(C2C3C=CCCC3(C)C(=O)N2Cc2ccccc2)c1 (stereo not given)
 : · | -0.1 | 3.0 | ·
- CCOC(=O)N1CCN([N+]([O-])=NOc2cc(O/N=[N+](\[O-])N(CC)CC)c([N+](=O)[O-])cc2[N+](=O)[O-])CC1
 : · | 0.8 | -5.8 | ·
- CC(C)(C)n1ncc2c(=O)n(Cc3cccc(C(F)(F)F)c3)cnc21
 : · | 0.6 | -0.4 | ·
- O=C(Nc1ccc(O)c2c(=O)cc(-c3ccccc3Cl)oc12)c1cc(Cl)cc(Cl)c1
 : · | 0.4 | 11.2 | ·
- COc1ccc(-c2ccc(C3C4C=CCCC4(C)C(=O)N3Cc3ccccc3)c(F)c2)cc1 (stereo not given)
 : · | 0.5 | 75.2 | ·
- CNC(=O)[C@]1(C(F)(F)F)C[C@H](CCC2CCCCC2)CCCO1
 : · | 0.5 | 63.8 | ·
- CC(C)(C)n1ncc2c(=O)n(Cc3c(Cl)cccc3Cl)cnc21
 : · | 2.5 | -2.9 | ·
- COc1ccc(-c2ccc(C)cc2)cc1C1C2C=CCC(C)C2C(=O)N1Cc1ccccc1 (stereo not given)
 : · | 1.1 | 40.4 | ·
- COc1cccc(Cn2cnc3c(cnn3C(C)(C)C)c2=O)c1
 : · | 0.1 | -12.0 | ·
- CC(C)CC(CSc1ccc(Br)cc1)N1CCN(CC(C)C)CCC1=O (stereo not given)
 : · | 2.3 | 66.2 | ·
- CC(=O)Nc1ccn(C2OC(C(COC(C)=O)NC(=O)C(CCCCNC(=O)OCc3ccccc3)NC(=O)OC(C)(C)C)C(OC(C)=O)C2OC(C)=O)c(=O)n1 (stereo not given)
 : · | 0.9 | 17.6 | ·
- COc1ccc(-c2c(C3C4C=CCC(C)C4C(=O)N3Cc3ccccc3)ccc3ccccc23)cc1OC (stereo not given)
 : · | 2.2 | 2.1 | ·
- O=S1(=O)NCC23CCC(CC21)O3 (stereo not given)
 : · | 0.9 | -7.0 | ·
- COc1ccc(C2C3C=CCC(C)C3C(=O)N2Cc2ccccc2)cc1Cl (stereo not given)
 : · | 3.3 | 68.1 | ·
- CC(C)(C)c1ccc(Cn2cnc3c(cnn3C(C)(C)C)c2=O)cc1
 : · | 0.2 | -0.4 | ·
- CC(C)(C)OC(=O)NS(=O)(=O)Nc1ccccc1Br
 : · | 1.1 | -12.4 | ·
- CC(=O)Nc1ccc(SCC(c2ccccc2)N2CCN(CC(C)C)CCC2=O)cc1 (stereo not given)
 : · | 0.8 | -11.8 | ·
- CCC1C(=O)CC2CCN3C(=O)CCC1C23 (stereo not given)
 : · | 1.3 | 4.5 | ·
- COc1ccc(-c2cccc(C3C4C=CCCC4(C)C(=O)N3Cc3ccccc3)c2)cc1 (stereo not given)
 : · | 0.0 | -10.7 | ·
- COc1cc(C(CCN2CCCC2)c2c(OC)cc(OC)c3c2OC(=O)CC3c2ccc(N(C)C)cc2)cc(OC)c1OC (stereo not given)
 : · | 0.2 | -4.9 | ·
- CC(C)(C)n1ncc2c(=O)n(Cc3ccccc3F)cnc21
 : · | 0.7 | 23.8 | ·
- CCC(C)C(NC(=O)OC(C)(C)C)C(=O)NC1COC2CC(n3cc(F)c(=O)[nH]c3=O)OC12 (stereo not given)
 : · | -0.1 | -6.7 | ·
- C/C=C(/C)C(=O)O[C@H]1CC(C)=CC(=O)[C@@]2(C)CC[C@@](O)(C(C)C)[C@H]12
 : · | 0.9 | 0.7 | ·
- CCN(CC)CCC(c1ccc(N(C)C)cc1)c1c(OC)cc(OC)c2c1OC(=O)CC2c1ccc(OC)cc1 (stereo not given)
 : · | 1.0 | 6.8 | ·
- CC(=O)OCC(NC(=O)C1CCCN1C(=O)OC(C)(C)C)C1OC(n2cc(F)c(=O)[nH]c2=O)C(OC(C)=O)C1OC(C)=O (stereo not given)
 : · | 0.6 | -3.5 | ·
- O=S(=O)(NCCc1ccccc1)c1ccccc1Br
 : · | 1.7 | -4.0 | ·
- CN1CCC(=O)N(C(CSc2ccc(Br)cc2)c2ccccc2)CC1 (stereo not given)
 : · | 0.6 | -22.0 | ·
- COc1ccc(/C=C/c2ccccc2)cc1C1C2C=CCC(C)C2C(=O)N1Cc1ccccc1 (stereo not given)
 : · | 0.5 | 24.7 | ·
- CCCC[C@@H]1CCCO[C@@](C(=O)NCc2ccccc2)(C(F)(F)F)C1
 : · | 0.2 | -3.7 | ·
- COc1ccc(C2/C=C\CN(C(=O)c3ccccc3)C(C)C(=O)N2Cc2ccc(F)cc2)cc1 (stereo not given)
 : · | 0.5 | 20.1 | ·
- COC(=O)CCN(Cc1ccco1)S(=O)(=O)c1ccc(F)cc1Br
 : · | 1.9 | -3.8 | ·
- COC(=O)CCc1ccccc1S(=O)(=O)N(CCC(=O)OC)Cc1ccccc1
 : · | 3.2 | -2.4 | ·
- CCCN1CCC(=O)N(C(CSc2ccc(C)cc2)Cc2ccccc2)CC1 (stereo not given)
 : · | 1.2 | -5.6 | ·
- O=C(NCc1ccccc1)[C@]1(C(F)(F)F)C[C@H](CCCO)CCCO1
 : · | 0.6 | -6.7 | ·
- COC(=O)C1=C[C@@H](C(=O)OC)[C@@H]2C3=C(C(=O)[C@@]2(C)NC(=O)c2ccccc2)[C@H](C)[C@@H]2C(=O)N(c4ccccc4)C(=O)[C@@H]2[C@@H]3C1
 : · | -0.2 | -15.9 | ·
- O=C1C[C@H](c2ccccc2Cl)N1S(=O)(=O)c1ccccc1[N+](=O)[O-]
 : · | 1.1 | -21.5 | ·
- CN(C)/[N+]([O-])=N/Oc1cc(ON=[N+]([O-])N2CCN(c3ncccn3)CC2)c([N+](=O)[O-])cc1[N+](=O)[O-]
 : · | 1.1 | -8.8 | ·
- CC1CC=CC2C1C(=O)N(Cc1ccccc1)C2c1ccc2ccccc2c1-c1ccc(N(C)C)cc1 (stereo not given)
 : · | 1.8 | 62.6 | ·
- O=C1C2C(c3ccccc3)CC=CC2C(c2ccc3ccccc3c2)N1Cc1ccccc1 (stereo not given)
 : · | 0.8 | 21.2 | ·
- COc1ccc(C2CC(c3ccccc3)Oc3ccc(OC)cc32)cc1 (stereo not given)
 : · | 2.8&2.7 | -6.2&-2.9 | ·
- O=S1(=O)C2CC3C=CC2(CN1Cc1cccc(F)c1)O3 (stereo not given)
 : · | 0.8 | 26.4 | ·
- COc1ccc(-c2ccc(OC)c(C3C4C=CCCC4(C)C(=O)N3Cc3ccccc3)c2)cc1 (stereo not given)
 : · | 1.7 | -0.5 | ·
- CCOC(=O)N1CCCN(/[N+]([O-])=N/Oc2ccc([N+](=O)[O-])cc2[N+](=O)[O-])CC1
 : · | 0.9 | 12.9 | ·
- COC(=O)[C@]12CCCCC=C1N(Cc1ccc3c(c1)OCO3)C(=O)[C@H](CC(=O)N1CCCC1)C2
 : -3.2 | · | · | -2.4
- CC(C)(C)NC(=O)C(c1ccc(C(F)(F)F)cc1)n1c(=O)c(-c2ccccc2)nc2ccccc21 (stereo not given)
 : -13.0 | · | · | 2.0

Additional results follow.
Values in the order – CtBP-E1A blk | TRPML1 agonist | TRPML1 blocker | Six1-Eya2 blk
- O=C(Nc1ccc(F)cc1)C(c1ccccc1OC(F)(F)F)N1CCN(C(=O)c2ccco2)CC1 (stereo not given)
 : 3.0 | · | · | -1.4
- COc1cc(Cc2nc3ccccc3n2C(C)c2nc3ccccc3[nH]2)cc(OC)c1 (stereo not given)
 : 4.9 | · | · | -4.3
- O=C(NC1CCCCC1)C(c1ccc(C(F)(F)F)cc1)n1c(=O)c(-c2cc3ccccc3[nH]2)nc2ccccc21 (stereo not given)
 : 32.0 | · | · | 36.1
- COc1ccc(-c2cn(CC[C@@H]3CC[C@H](NC(=O)Cc4ccccn4)[C@@H](CO)O3)nn2)cc1
 : 0.0 | · | · | -0.7
- COc1ccc(OC)c(CN2C(=O)CN(S(C)(=O)=O)CC2(C)C(=O)NCc2ccccc2)c1 (stereo not given)
 : 0.3 | · | · | 21.6
- Cn1cc([C@]2(O)C(=O)Nc3ccc(OC(F)(F)F)cc32)c2ccccc21
 : -0.1 | · | · | -3.2
- CC(C)(C)NC(=O)C(c1ccnc2ccccc12)n1c(=O)c(-c2cc3ccccc3[nH]2)nc2ccccc21 (stereo not given)
 : 11.6 | · | · | 23.9
- O=C(Nc1ccc(F)cc1)C(CCc1ccccc1)N1CCN(Cc2c(F)cccc2Cl)CC1 (stereo not given)
 : -2.2 | · | · | -12.9
- CCOC(=O)[C@]12CCCC=C1N(CCc1ccc(OC)c(OC)c1)C(=O)[C@H](CC(=O)N1CCCC1)C2
 : -17.0 | · | · | -15.2
